Assay outcomes (PubChem BioAssay)
VDR inh – blocks the human vitamin D receptor | P11473 | VDR-SRC2-3 peptide fluorescence polarization, 2 h | Potency, µM, inactives show max response, negative = inhibition, usual class: inhibitors | 400,000 compounds, 0.93% hits; active = well fitted inhibition curve with a large enough effect; inconclusive = small, poorly fitted or top-dose-only effect, or another doubt; inactive = no such curve, though single readings can be large or run the other way; note: series mostly up to about 120 µM
Target sequence (P11473 whole entry, looked up): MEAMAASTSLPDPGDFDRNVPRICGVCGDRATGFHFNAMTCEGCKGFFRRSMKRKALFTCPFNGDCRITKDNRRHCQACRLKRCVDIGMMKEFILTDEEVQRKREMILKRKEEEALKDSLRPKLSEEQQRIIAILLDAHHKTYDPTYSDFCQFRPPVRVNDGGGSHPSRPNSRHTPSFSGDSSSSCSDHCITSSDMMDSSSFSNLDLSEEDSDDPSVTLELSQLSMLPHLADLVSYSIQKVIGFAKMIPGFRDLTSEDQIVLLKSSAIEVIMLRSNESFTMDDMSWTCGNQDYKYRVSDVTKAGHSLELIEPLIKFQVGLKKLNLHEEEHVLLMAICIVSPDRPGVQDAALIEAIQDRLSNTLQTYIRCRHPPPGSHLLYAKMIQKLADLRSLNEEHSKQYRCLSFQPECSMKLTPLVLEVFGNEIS
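Compounds are added to VDR with labelled SRC2-3 coactivator peptide and held 2 h at room temperature. Inhibition of the VDR–peptide interaction is then read as a change in fluorescence polarization.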
Active calls of the source: *; ? = inconclusive; & = joins results of further samples. % is set by controls: 0 for no effect and ±100 for the full control effect; potency is the fitted concentration of half-maximal effect. This is a subset (hit frequency here may not be typical).

SMILES | VDR inh
Cn1c(=O)c2c(ncn2Cc2ccc(Cl)cc2)n(C)c1=O | -7%&-9%
Cn1nc(-c2ccc(Cl)cc2)c2cc(C(=O)NCc3ccco3)sc21 | -13%
CC(C)(C)NC(=O)N1c2ccccc2Sc2ccccc21 | -1%
COc1ccc(-c2ccc(NS(=O)(=O)c3cc([N+](=O)[O-])ccc3C)cc2)nn1 | 2%
Cc1cc(F)c(F)c(C(=O)NC2CC2)c1Cl | 1%
Cc1cccc(N2CCN(C(=O)c3ccc(NS(=O)(=O)c4ccc5[nH]c(=O)[nH]c5c4)cc3)CC2)c1C | -7%
COc1ccc(NC(=O)CN(C)C(=O)c2oc3ccccc3c2C)cc1 | -5%
C/C(Cl)=C\Cn1c(Nc2ccc(C)cc2)nc2c1c(=O)n(C)c(=O)n2C | 8%
Cc1ccn2cc(C(=O)NCc3ccco3)nc2c1 | 5%
Cc1cccc(NC(=O)c2cccc(N3C(=O)C4CCC(C)CC4C3=O)c2)c1C (stereo not drawn) | -8%
Cc1cc(NC(=O)COC(=O)/C=C/c2ccc(C)o2)no1 | -12%
COc1cccc(C(=O)NCCS(=O)(=O)NCCCc2ccccc2)c1 | -15%
COc1ccc(C(=O)NCCSCc2cccc(Cl)c2)cc1OC | 6%
Cc1ccc(OS(=O)Nc2cccc3nccnc23)cc1 (stereo not drawn) | -9%
COc1ccc(-c2nnc(SCC(=O)O)n2Cc2ccccc2)cc1 | -5%
Cc1csc2nc(CNC(=O)C3CCCCC3)cn12 | -6%
Cc1ccc(NC(=S)NC(=O)c2c(-c3ccccc3Cl)noc2C)cc1 | -7%
CC(=O)n1cc([C@H]2C=C(C(=O)Nc3ccccc3)O[C@@H](OCc3ccc(CO)cc3)C2)c2ccccc21 | 2%
COc1ccc(-c2cc(C(F)(F)F)n3nc(C(=O)NCC45CC6CC(CC(C6)C4)C5)cc3n2)cc1 | 1%
CC(C)COc1ccc(C(=O)Nc2ccc(S(=O)(=O)Nc3ncccn3)cc2)cc1 | -7%
N/C(=N\OC(=O)c1ccc2ccccc2c1)c1ccccc1Cl | 0%
O=NN1CCN(c2ccncc2S(=O)(=O)N2CCCCC2)CC1 | -6%
O=C(CCCc1ccccc1)Nc1cccc(C(=O)O)c1 | 8%
COc1ccc(S(=O)(=O)N2CCCCCC2)cc1NC(=O)c1c2c(nc3ccccc13)CCN(Cc1ccccc1)C2 | 4%
CN(C(=O)CSc1cccc[n+]1[O-])c1ccccc1 | -6%
(cont.)
SMILES | VDR inh
COc1ccc(-c2nc(CS(=O)CC(=O)NCCC3=CCCCC3)c(C)o2)cc1 (stereo not drawn) | -17%
CCOc1ccc(S(=O)(=O)N(CCO)CCO)cc1-c1nc2c(C(C)(C)C)nn(C)c2c(=O)[nH]1 | -7%
CC(C(=O)N1CCCCC1)n1ncn2cccc2c1=O (stereo not drawn) | 12%
CCCN(C(=O)c1nn(-c2ccc(OC)c(Cl)c2)c(=O)c2c1c1ccccc1n2C)c1ccccc1F | 24%
COc1ccc(C(=O)NCCc2nnc(SCC(=O)Nc3ccccc3F)n2C)cc1 | -13%
Cc1ccc(C)n1-c1ccc(N2CCOCC2)cc1 | -7%
CCN1CCN(CC(O)COc2ccc3c(C)cc(=O)oc3c2)CC1 (stereo not drawn) | 0%
CCOc1ccccc1C(=O)N1CCN(c2ccc(C(F)(F)F)cn2)CC1 | -18%
Cc1ccc(NS(=O)(=O)c2ccc(OCC(=O)N3CCOCC3)cc2)cc1 | 6%
Nc1ccc(NC(=O)c2ccccc2)c2c1C(=O)c1ccccc1C2=O | 23%
C[C@@H](C(=O)N[C@H](C(=O)O)c1ccccc1)n1nnc2ccccc2c1=O | -8%
Cc1ccccc1Cn1c(C)nc2ccc([N+](=O)[O-])cc2c1=O | -4%
CCOc1cccc(=O)c2c(C)n(CC3CCCO3)c(C)c12 (stereo not drawn) | -11%
CC(=O)c1ccc(S(=O)(=O)Nc2ccc(-n3c(C)nc4ccccc4c3=O)cc2)cc1 | -4%
COCCN(C(=O)c1ccc(COc2ccccc2)o1)c1c(N)n(CC(C)C)c(=O)[nH]c1=O | 5%
Cc1ccccc1C(=NC(=O)c1ccccc1)c1ccccc1 | -16%
CC(=O)Nc1ccc2c3c(cccc13)C(=O)N(c1ccccc1)C2=O | 4%
CCCCOc1ccccc1C(=O)N(Cc1ccco1)C1CCS(=O)(=O)C1 (stereo not drawn) | 13%
CC(C)c1ccc(CN(C(=O)C2COc3ccccc3O2)C2CCS(=O)(=O)C2)cc1 (stereo not drawn) | -11%
COc1ccc(C(=O)N[C@H](C(=O)Nc2sccc2C(N)=O)C(C)C)cc1 | 9%
CCCCOc1ccc(S(=O)(=O)Nc2cccnc2)cc1 | 6%
COc1ccccc1Nc1nc(-c2cccc([N+](=O)[O-])c2)nc2ccccc12 | -13%
COc1ccc(CNc2nc3nc(C)c(Cl)c(=O)n3[nH]2)cc1OC | 8%
CCCCC(=O)N1C/C=C\C(c2ccc(OC)cc2)N(Cc2ccc(F)cc2)C(=O)C1C (stereo not drawn) | -12%
CC1=NN(c2ccccc2)C(=O)C1C=Nc1ccccc1O (stereo not drawn) | 2%
The listing continues:
SMILES | VDR inh
O=C(COC(=O)c1c2c(nc3ccccc13)CCCC2)c1ccc(Br)s1 | -6%
O=C(NCCc1ccc2c(c1)OCCO2)c1cccc(F)c1 | -13%
Cc1ccc(OCC(=O)Nc2sc3c(c2C(N)=O)CCCC3)c(C(C)(C)C)c1 | 6%
COc1ccc(C(CC(=O)Nc2cc(Cl)c(OC)cc2OC)N2Cc3ccccc3C2=O)cc1 (stereo not drawn) | 5%
O=C(CCOc1ccccc1)Nc1ccnn1C1CCN(Cc2ccccc2)CC1 | -12%
CCN(c1ccccc1)S(=O)(=O)c1cc2c(cc1C)NC(=O)CO2 | 16%
CC(C)Cc1nccs1 | 6%
CCOC(=O)c1cc2c(C)n(-c3ccc(OCC)cc3)c(C)c2cc(C(=O)OCC)c1=O | -5%
Cc1c(C(=O)NCCC2=CCCCC2)oc2ccc(S(=O)(=O)N3CCOCC3)cc12 | -26%
CN1/C(=c2/s/c(=C3/C(=O)N(c4ccccc4)NC3=Nc3ccccc3)n(C)c2=O)C(C)(C)c2ccccc21 | -9%
CC(C)c1ccc(CNCCSc2nnnn2-c2ccccc2)cc1 | 4%
Cc1ccc(Nc2ccccc2N)cc1 | -9%
COCCCN1C(=O)C(=O)/C(=C(/O)c2ccccc2)C1c1ccc2c(c1)OCO2 (stereo not drawn) | 12%
COc1ccc(N2CCN(CC(=O)Nc3ccc(SC(F)F)cc3)CC2)cc1 | 3%
Cc1noc(NS(=O)(=O)c2ccc(NC(=O)C34CCC(CC3)C4)cc2)c1C | 8%
CCOC(=O)C1CCCN(C(=O)c2cc(Cl)ccc2NC(=O)C2=C(C)OCCS2)C1 (stereo not drawn) | -17%
Cc1cc(-c2ccc(/C=N/n3cnnc3)o2)c([N+](=O)[O-])cc1C | -10%
C=CCSC1=C(C#N)C(c2ccc(C(C)C)cc2)CC(=O)N1 (stereo not drawn) | ?
CC(C)OCCCNC(=O)C(NC(=O)c1ccc(Cl)cc1)C(C)C (stereo not drawn) | 2%
CN(C)/C=C/C(=O)c1ccc(Cl)s1 | 2%
Cc1nnc(SCC(=O)N2CCCCC2)s1 | 0%
CCOc1cccc(/C(O)=C2/C(=O)C(=O)N(CCOC)C2c2ccc(C)o2)c1 (stereo not drawn) | -3%
O=c1[nH]c2nc(Br)[nH]c(=O)c2[nH]1 | -3%
CCCCNC(=O)N(O)C1N(CCCC)C(=O)N(CC(=O)OC)C1(C)C (stereo not drawn) | -5%
CCCCOc1ccc(-c2nnc(N)s2)cc1 | -2%
Later entries
SMILES | VDR inh
Cc1ccccc1-n1ncc2c1CC(C)(C)CC2NC(=O)CCN1Cc2ccccc2C1=O (stereo not drawn) | 12%
Cc1cccc(Nc2nc(-c3ccccc3)c(C(=O)Nc3cccnc3)s2)c1 | 20%
Cc1ccccc1NC(=O)COC(=O)c1ccc2c(c1)C(=O)N(CCCN1CCOCC1)C2=O | -11%
O=C(Nn1c(-c2ccncc2)nc2ccccc2c1=O)c1ccc(Br)cc1 | -10%
CC(OC(=O)Cn1[nH]c(=O)c2ccccc2c1=O)C(=O)Nc1ccc(Cl)cn1 (stereo not drawn) | 10%
COC(=O)CSc1nnc(CNC(=O)c2ccc(S(=O)(=O)N3CCCCC3)cc2)n1C | 2%
CCOC(=O)c1[nH]c2ccccc2c1NC(=O)c1ccc(C)c(C)c1 | -9%
CCC(=O)N1CCc2cc(Br)cc(S(=O)(=O)N3CCC(C(=O)NCCCOC(C)C)CC3)c21 | -7%&-1%
COCC(=O)Nc1cccc(-c2nc3cccnc3s2)c1 | 2%
CC(C)Cc1nnc(NS(=O)(=O)c2ccc(Cl)cc2)s1 | -12%
COc1ccc(NC(=S)NNc2ccc(S(=O)(=O)Nc3ccccc3C(=O)O)cc2[N+](=O)[O-])cc1 | -3%
Cc1cc(C)n2nc(/C(C#N)=C/c3ccccc3)c(C#N)c2n1 | -23%
Cc1cccc2cc(CN(Cc3cccnc3)C(=S)NCCCN(C)C)c(=O)[nH]c12 | ?
COc1cccc2c1NC(C(=O)O)C1CC=CC21 (stereo not drawn) | -18%
Cc1cc(C)c(NC(=O)C2CCCN(C(=O)c3cnn(-c4ccccc4)c3-n3cccc3)C2)c(C)c1 (stereo not drawn) | 2%
COC(=O)c1cc(C(=O)OCC(=O)c2ccc3c(c2)NC(=O)CO3)cc([N+](=O)[O-])c1 | -10%
O=S1(=O)CC(O)C(N2CCCCC2)C1 (stereo not drawn) | -11%
CCN(CC(=O)Nc1c(F)cccc1F)C(=O)CCOc1ccc(C)cc1 | -21%
Cc1cc(C(=O)COC(=O)CC(NC(N)=O)c2ccc(Cl)cc2)c(C)n1C (stereo not drawn) | -13%
Cc1ccc(-n2ncc3c(=O)n(CC(=O)NC4CCCCC4)cnc32)cc1C | -2%
CCCNc1nc(N)nc(-c2cc(Cl)ccc2OC)n1 | 1%
CCOC(=O)c1ccccc1NC(=O)/C=C/C(=O)O | -10%
Cc1ccc(CNC(=O)C2CCN(S(=O)(=O)c3cn(C)cn3)CC2)cc1 | 4%
NNC(=O)C1=NOC2COC3(CCN(c4ncccn4)CC3)OCC12 (stereo not drawn) | -1%
c1ccc(Cn2nnc(-c3ccccc3)n2)cc1 | -4%
The list goes on:
SMILES | VDR inh
CC(=O)c1c(O)cc2n(c1=O)-c1ccc(Cl)cc1C2(C)C | -9%
COc1ccc2c(c1OC)C(=O)N1c3ccccc3COC21 (stereo not drawn) | -1%
CCCC12CN3CC(C)(CN(C1)C3c1cccs1)C2=O (stereo not drawn) | -4%
CCOc1ccc(CCNc2ccc3nnc(-c4ccccc4)n3n2)cc1OCC | -3%
O=C1CSc2cc(Cl)ccc2N1 | ?
CCOc1ccccc1NC(=O)c1ccc(C(=O)Nc2ccccc2OCC)nc1 | 5%
COCCCN1CN=C(Nc2nc3ccccc3o2)NC1 | -23%
Cc1cc2cc(C(c3nnnn3Cc3ccccc3)N3CCc4ccccc43)c(=O)[nH]c2cc1C (stereo not drawn) | 7%
C=CCN1C(=O)/C(=C\c2ccc(C)cc2)N=C1SCC(=O)NCCC | -3%
CCOc1ccc(S(=O)(=O)NCC(c2ccc(N(C)C)cc2)N2CCCC2)cc1 (stereo not drawn) | 6%
O=C(Cc1ccccc1)Nc1ccc(N2CCOCC2)cc1 | 23%
CSc1nc(NCC(C)O)c2c3c(sc2n1)CN(C)CC3 (stereo not drawn) | 8%
COc1ccc(NC(=O)[C@H](C)NC(=O)C2CCN(S(=O)(=O)c3ccc(C)cc3)CC2)cc1 | -16%
Cc1ccc(S(=O)(=O)NNc2ccccc2)c(C)c1 | ?
CCOc1ccccc1C(=O)N/N=C/c1cccc2cccnc12 | -9%
COc1ccc(C(=O)NCc2ccc3[nH]c(C)cc3c2)cc1OC | ?
CC1CCc2sc(NC(=S)NC(=O)c3ccccc3)c(C#N)c2C1 (stereo not drawn) | ?
O=C(COc1ccc([N+](=O)[O-])cc1Cl)N(C1CCCCC1)C1CCS(=O)(=O)C1 (stereo not drawn) | 14%
Cc1noc(C)c1CSc1nnc(-c2ccncc2)n1-c1cccc(Cl)c1C | 12%
O=C(C1=NN[C@@H]2C(=O)N(c3cccc(C(F)(F)F)c3)C(=O)[C@H]12)c1cnccn1 | 9%

A run of entries of the results above, as a working copy:
SMILES | VDR inh
c1ccc(Cn2nnc(-c3ccccc3)n2)cc1 | -4%
CC(=O)c1c(O)cc2n(c1=O)-c1ccc(Cl)cc1C2(C)C | -9%
COc1ccc2c(c1OC)C(=O)N1c3ccccc3COC21 (stereo not drawn) | -1%
CCCC12CN3CC(C)(CN(C1)C3c1cccs1)C2=O (stereo not drawn) | -4%
CCOc1ccc(CCNc2ccc3nnc(-c4ccccc4)n3n2)cc1OCC | -3%
O=C1CSc2cc(Cl)ccc2N1 | ?
CCOc1ccccc1NC(=O)c1ccc(C(=O)Nc2ccccc2OCC)nc1 | 5%
COCCCN1CN=C(Nc2nc3ccccc3o2)NC1 | -23%
Cc1cc2cc(C(c3nnnn3Cc3ccccc3)N3CCc4ccccc43)c(=O)[nH]c2cc1C (stereo not drawn) | 7%
C=CCN1C(=O)/C(=C\c2ccc(C)cc2)N=C1SCC(=O)NCCC | -3%
CCOc1ccc(S(=O)(=O)NCC(c2ccc(N(C)C)cc2)N2CCCC2)cc1 (stereo not drawn) | 6%
O=C(Cc1ccccc1)Nc1ccc(N2CCOCC2)cc1 | 23%
CSc1nc(NCC(C)O)c2c3c(sc2n1)CN(C)CC3 (stereo not drawn) | 8%
COc1ccc(NC(=O)[C@H](C)NC(=O)C2CCN(S(=O)(=O)c3ccc(C)cc3)CC2)cc1 | -16%
Cc1ccc(S(=O)(=O)NNc2ccccc2)c(C)c1 | ?
CCOc1ccccc1C(=O)N/N=C/c1cccc2cccnc12 | -9%
COc1ccc(C(=O)NCc2ccc3[nH]c(C)cc3c2)cc1OC | ?
CC1CCc2sc(NC(=S)NC(=O)c3ccccc3)c(C#N)c2C1 (stereo not drawn) | ?

An excerpt from above in order of their number in VDR inh, descending.
SMILES | VDR inh
CC(C(=O)N1CCCCC1)n1ncn2cccc2c1=O (stereo not drawn) | 12%
NNC(=O)C1=NOC2COC3(CCN(c4ncccn4)CC3)OCC12 (stereo not drawn) | -1%
COCCCN1CN=C(Nc2nc3ccccc3o2)NC1 | -23%
